AF4-AF9 inh: blocks AF4 peptide binding to human AF9; inhibition, % at 10 µM; P42568; 350,000 compounds, 0.47% hits; AlphaScreen, biotin-AF4 peptide binding to FLAG-AF9;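 active = every replicate reaching a set inhibition limit, whatever the replicate mean, cut at about 25% in these data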;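 also: 0% = plate neutral control median and 100% = total signal loss; the record names both 10 and 1 µM as test concentration; the first replicate is given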
Target sequence (P42568 whole entry, looked up): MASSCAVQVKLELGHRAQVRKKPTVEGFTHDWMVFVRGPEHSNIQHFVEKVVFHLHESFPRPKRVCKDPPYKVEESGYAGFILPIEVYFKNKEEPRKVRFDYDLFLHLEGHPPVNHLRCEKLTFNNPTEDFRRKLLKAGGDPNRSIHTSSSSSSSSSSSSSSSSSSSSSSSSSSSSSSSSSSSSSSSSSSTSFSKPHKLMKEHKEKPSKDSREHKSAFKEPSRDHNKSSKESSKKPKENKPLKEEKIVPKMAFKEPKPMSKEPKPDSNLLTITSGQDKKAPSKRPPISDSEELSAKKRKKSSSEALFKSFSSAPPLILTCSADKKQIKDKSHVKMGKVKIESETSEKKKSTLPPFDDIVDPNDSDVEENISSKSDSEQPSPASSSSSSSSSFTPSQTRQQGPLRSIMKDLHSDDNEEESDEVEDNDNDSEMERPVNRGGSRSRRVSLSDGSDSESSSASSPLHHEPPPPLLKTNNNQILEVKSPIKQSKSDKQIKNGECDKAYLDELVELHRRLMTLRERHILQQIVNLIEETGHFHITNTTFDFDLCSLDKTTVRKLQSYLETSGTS
Starred values were filed as active, the others as inactive. An excerpt. The share of hits here may be higher or lower than overall.

No.	AF4-AF9 inh	smiles
1	0.8	COc1ccc(NC(=O)N[C@@H]2CC[C@@H](CCn3cc(-c4ccccc4)nn3)O[C@H]2CO)cc1
2	3.3	COc1ccc(F)cc1-c1cc(NC=O)c2ncc(-c3cccc(C(F)(F)F)c3)n2c1
3	-2.9	C[C@@H]1CN([C@@H](C)CO)C(=O)c2cc(NC(=O)Nc3cccc4ccccc34)ccc2O[C@@H]1CN(C)S(C)(=O)=O
4	-1.1	Cc1ccc(S(=O)(=O)N(C)C[C@@H]2OCCCC[C@@H](C)Oc3ccc(NS(=O)(=O)c4ccccc4)cc3C(=O)N([C@H](C)CO)C[C@@H]2C)cc1
5	1.4	CC(C)NC(=O)Nc1ccc2c(c1)C(=O)N([C@@H](C)CO)C[C@H](C)[C@H](CN(C)S(=O)(=O)c1ccc(Cl)cc1)OCCCC[C@@H](C)O2
6	-15	Cc1ccc(S(=O)(=O)N(C)C[C@H]2Oc3c(NC(=O)c4cc(C)nn4C)cccc3C(=O)N([C@@H](C)CO)C[C@@H]2C)cc1
7	-15	COc1cccc(CNC(=O)[C@H]2[C@H](CO)[C@H]3Cn4c(cccc4=O)[C@@H]2N3C(=O)C2CC2)c1
8	-1.3	O=C(NC1CCCC1)C1c2ccccc2OCC(=O)N1CCc1c[nH]c2ccccc12 (stereo not given)
9	-1.6	Cc1ccc(CN2C(=O)CCC2(C)c2nnnn2Cc2ccccc2)cc1 (stereo not given)
10	-1.2	CS(=O)(=O)N1CC2(C1)[C@H](c1ccccc1)[C@@H](CO)N2C(=O)c1ccccc1
11	-0.9	CC(=O)N(C)C[C@@H]1Oc2cc(-c3ccccc3)ccc2S(=O)(=O)N([C@H](C)CO)C[C@@H]1C
12	-18	CO[C@H]1CN(C)C(=O)c2cc(NS(=O)(=O)CC(F)(F)F)ccc2OC[C@@H](C)N(Cc2ccccn2)C[C@@H]1C
13	3.2	Cc1noc(C)c1S(=O)(=O)Nc1ccc2c(c1)CC(=O)N([C@@H](C)CO)C[C@@H](C)[C@@H](CN(C)Cc1ccc(-c3ccccc3)cc1)O2
14	-1.4	COc1ccccc1NC(=O)N[C@@H]1CC[C@H](CCNS(=O)(=O)c2ccc(C)cc2)O[C@@H]1CO
15	0.2	COc1ccccc1CN1[C@H](C(=O)NCc2ccccc2)[C@@H](CO)[C@@H]2Cn3c(cccc3=O)[C@@H]21
16	0.9	O=C(C[C@@H]1C=C[C@H](NC(=O)NC2CCCCC2)[C@H](CO)O1)NCc1ccc(Cl)cc1
17	3.0	CC(=O)N(C[C@@H]1N[C@@H](CO)[C@H]1c1ccc(-c2ccccc2)cc1)C(C)C
18	-9.7	C[C@@H]1CN([C@H](C)CO)C(=O)c2cc(NC(=O)Nc3cccc4ccccc34)ccc2O[C@H]1CN(C)C(=O)Nc1ccc(C(F)(F)F)cc1
19	-3.4	C[C@@H]1CCCCO[C@H](CN(C)C(=O)c2ccncc2)[C@@H](C)CN([C@@H](C)CO)C(=O)c2cc(NC(=O)c3ccccc3)ccc2O1
20	-3.0	Cc1cccc(-c2ccc([C@H]3[C@@H](CO)N4CCCCN(S(=O)(=O)c5cn(C)cn5)C[C@@H]34)cc2)c1
21	-5.7	CO[C@@H](CN(C)Cc1ccc2c(c1)OCO2)[C@@H](C)CN(C(=O)Nc1ccc(F)cc1)[C@H](C)CO
22	1.8	COc1ccc2c3c([nH]c2c1)[C@H](CO)N(C(=O)c1ccc(F)cc1)CC31CCN(C)CC1
23	1.4	CCC(=O)N1CCC2(CC1)CN(Cc1cccc(Cl)c1)[C@@H](CO)c1[nH]c3cc(OC)ccc3c12
24	5.0	C[C@H]1CCCCO[C@@H](CN(C)C(=O)Nc2ccc3c(c2)OCO3)[C@@H](C)CN([C@@H](C)CO)C(=O)c2cc(NC(=O)Nc3ccccc3)ccc2O1
25	-3.8	COCC#Cc1ccc(CC[C@H]2O[C@H]3CC[C@H](CO)O[C@H]3C[C@@H]2n2cc(C(C)(C)O)nn2)cc1
26	-2.4	CC(C)NC(=O)N(C)C[C@@H]1OCCCC[C@H](C)Oc2ccc(NC(=O)CCC(F)(F)F)cc2C(=O)N([C@@H](C)CO)C[C@H]1C
27	-1.7	COc1ccc2c3c([nH]c2c1)[C@@H](CO)N(Cc1cccc(Cl)c1)CC31CCN(C(C)=O)CC1
28	5.4	CCC(=O)NC[C@H]1N[C@H](CO)[C@@H]1c1ccc(-c2cccnc2)cc1
29	-2.4	C/C=C/c1ccc([C@@H]2[C@H](CO)N3C(=O)CN(C(=O)c4ccncc4)C[C@@H]23)cc1
30	0.8	CCS(=O)(=O)Nc1ccc2c(c1)C(=O)N(C)C[C@@H](OC)[C@@H](C)CN(C(=O)COC)[C@@H](C)CO2

Reprinted at random: 3 records from the list
No.	AF4-AF9 inh	smiles
12	-18	CO[C@H]1CN(C)C(=O)c2cc(NS(=O)(=O)CC(F)(F)F)ccc2OC[C@@H](C)N(Cc2ccccn2)C[C@@H]1C
28	5.4	CCC(=O)NC[C@H]1N[C@H](CO)[C@@H]1c1ccc(-c2cccnc2)cc1
5	1.4	CC(C)NC(=O)Nc1ccc2c(c1)C(=O)N([C@@H](C)CO)C[C@H](C)[C@H](CN(C)S(=O)(=O)c1ccc(Cl)cc1)OCCCC[C@@H](C)O2

The main list resumes; the 6 compounds before the break are reprinted first.
No.	AF4-AF9 inh	smiles
25	-3.8	COCC#Cc1ccc(CC[C@H]2O[C@H]3CC[C@H](CO)O[C@H]3C[C@@H]2n2cc(C(C)(C)O)nn2)cc1
26	-2.4	CC(C)NC(=O)N(C)C[C@@H]1OCCCC[C@H](C)Oc2ccc(NC(=O)CCC(F)(F)F)cc2C(=O)N([C@@H](C)CO)C[C@H]1C
27	-1.7	COc1ccc2c3c([nH]c2c1)[C@@H](CO)N(Cc1cccc(Cl)c1)CC31CCN(C(C)=O)CC1
28	5.4	CCC(=O)NC[C@H]1N[C@H](CO)[C@@H]1c1ccc(-c2cccnc2)cc1
29	-2.4	C/C=C/c1ccc([C@@H]2[C@H](CO)N3C(=O)CN(C(=O)c4ccncc4)C[C@@H]23)cc1
30	0.8	CCS(=O)(=O)Nc1ccc2c(c1)C(=O)N(C)C[C@@H](OC)[C@@H](C)CN(C(=O)COC)[C@@H](C)CO2
31	-4.5	C[C@@H]1CN([C@H](C)CO)C(=O)Cc2cc(NC(=O)Nc3ccc(C(F)(F)F)cc3)ccc2O[C@H]1CN(C)S(=O)(=O)c1cccs1
32	-7.2	CCOC(=O)C[C@@H]1OC[C@H](CO)N1S(=O)(=O)c1ccc(C)cc1
33	0.2	O=C(C[C@H]1CC[C@@H](NC(=O)c2ccc3c(c2)OCO3)[C@H](CO)O1)NCc1ccc(Cl)cc1
34	-0.4	C[C@H](CO)N1C[C@H](C)[C@@H](CN(C)C(=O)C2CCOCC2)Oc2ncc(C3=CCCC3)cc2C1=O
35	-6.5	COc1cccc(C(C)(O)c2nc(-c3ccccc3)cs2)c1 (stereo not given)
36	-0.7	O=C(C1CCC1)N1C[C@H]2[C@@H](c3ccccc31)[C@H](CO)N2C(=O)c1ccccc1
37	-4.6	CCC(=O)N(C)C[C@@H]1Oc2ncc(C#C[C@@H](C)O)cc2C(=O)N([C@H](C)CO)C[C@@H]1C
38	21	CCN(CC)CCN(C(=O)c1ccc2c(c1)CCCC2)c1nc2c(OC)cccc2s1
39	3.7	C[C@H]1CN([C@@H](C)CO)C(=O)Cc2cc(N(C)C)ccc2O[C@H]1CN(C)Cc1ccc2c(c1)OCO2
40	2.2	COc1ccc(CN(C)C[C@H]2Oc3c(NS(=O)(=O)c4ccc(Cl)cc4)cccc3C(=O)N([C@@H](C)CO)C[C@H]2C)cc1
41	3.6	CC(C)C[C@@H](CNCC(=O)[C@H](Cc1c[nH]c2ccccc12)NC(=O)c1[nH]cnc1C(=O)N[C@H](CN)CC(C)C)NC(=O)c1nc[nH]c1C(=O)N[C@@H](CC(=O)O)C(=O)O
42	-1.5	CCN(C[C@H]1N[C@@H](CO)[C@@H]1c1ccc(-c2cccc(C#N)c2)cc1)C(=O)COC
43	0.4	O=C(C[C@@H]1C=C[C@H](NC(=O)NC2CCCCC2)[C@@H](CO)O1)NCc1ccc(Cl)cc1
44	7.6	Cc1cc(C(=O)Nc2cccc3c2O[C@@H](CN(C)Cc2ccc(C(=O)Nc4ccccc4N)cc2)[C@H](C)CN([C@H](C)CO)C3=O)n(C)n1
45	-4.2	O=C(CC[C@H]1O[C@@H](n2cnc3c(NC(=O)c4ccccc4)ncnc32)[C@H](O)[C@@H]1O)NCc1ccco1
46	-2.6	COC(=O)c1sc(NC(=O)CN2CCN(c3cccc(Cl)c3)CC2)c(C(=O)OC)c1C
47	2.8	C[C@@H]1CN([C@H](C)CO)S(=O)(=O)c2ccc(C#CC3CC3)cc2O[C@H]1CN(C)Cc1ccc(F)cc1
48	-72	[O-][n+]1cc(Cl)cc(Cl)c1
49	1.0	C[C@H](NC(=O)C[C@H]1C[C@@H]2c3cc(N(C)C)ccc3O[C@@H]2[C@H](CO)O1)c1ccccc1
50	-1.1	O=C(C1CCN(S(=O)(=O)c2ccc(Cl)s2)CC1)N1CCN(c2ccccc2)CC1
51	1.9	CC(=O)N1[C@H](C(=O)NCc2ccccc2F)[C@@H](CO)[C@@H]2Cn3c(cccc3=O)[C@@H]21
52	2.4	CS(=O)(=O)N1[C@H](C#N)[C@H](c2ccc(C#CC3CCCC3)cc2)[C@@H]1CO
53	-1.6	C[C@H]1CN([C@@H](C)CO)C(=O)c2cc(NS(=O)(=O)c3cccs3)ccc2O[C@@H]1CN(C)Cc1ccc2c(c1)OCO2
54	1.3	C[C@@H]1CN([C@H](C)CO)C(=O)CCCn2cc(nn2)CO[C@@H]1CN(C)Cc1ccncc1
55	0.6	COc1ccc(-c2ccc([C@H]3[C@H]4CN(CC5CCOCC5)CCCCN4[C@H]3CO)cc2)cc1
56	-1.0	COCCNC(=O)[C@@H]1[C@@H](CO)[C@@H]2Cn3c(ccc(-c4ccccc4F)c3=O)[C@@H]2N1C(=O)C1CCCC1
57	-2.8	C[C@H]1CN([C@@H](C)CO)C(=O)c2cc(NC(=O)c3ccncc3)ccc2O[C@H]1CN(C)S(=O)(=O)c1cn(C)cn1
58	1.5	CO[C@H]1CN(C)C(=O)c2cc(NC(=O)c3ccc(F)cc3)ccc2OC[C@H](C)N(C)C[C@@H]1C
59	-0.7	O=C(Nc1ccc2c(c1)OCCO2)C1c2ccccc2OCC(=O)N1Cc1ccco1 (stereo not given)
60	-7.9	CO[C@H]1CC[C@H]2CCOc3c(C#N)cccc3C(=O)N(C)C[C@@H](C)C(=O)N(C)C[C@H]1O2

Following part:
No.	AF4-AF9 inh	smiles
61	-2.4	CCN(C(=O)COC(=O)C12CC3CC(CC(O)(C3)C1)C2)c1c(N)n(Cc2ccccc2)c(=O)[nH]c1=O
62	-1.1	C[C@H](CO)N1C[C@H](C)[C@@H](CN(C)C(=O)NC2CCCC2)Oc2ncc(-c3ccccc3F)cc2C1=O
63	1.1	C[C@H](CO)N1C[C@H](C)[C@H](CN(C)C(=O)Nc2ccc(F)cc2)OCCCC[C@H](C)Oc2ccc(NC(=O)CCCN(C)C)cc2C1=O
64	-3.5	O=S(=O)(c1ccccc1)N1CC2(C1)[C@H](c1ccccc1)[C@@H](CO)N2CC1CC1
65	-1.9	CC(C)NC(=O)Nc1cccc2c1O[C@H](CN(C)C(=O)Nc1ccc3c(c1)OCO3)[C@H](C)CN([C@@H](C)CO)C2=O
66	2.7	COc1ccc(C2=Nc3ccccc3N(C(=O)c3cccnc3)C2C(=O)NC2CCCC2)cc1 (stereo not given)
67	2.6	CC(=O)N(C)C[C@H]1[C@H](c2ccc(-c3ccccc3F)cc2)[C@@H](CO)N1C(C)=O
68	-0.2	Cc1ccc(S(=O)(=O)Nc2ccc3c(c2)C(=O)N([C@H](C)CO)C[C@H](C)[C@H](CN(C)C(=O)Nc2ccc(C(F)(F)F)cc2)OCCCC[C@@H](C)O3)cc1
69	-2.6	COc1ccc(S(=O)(=O)N(C)C[C@H]2Oc3c(NS(=O)(=O)c4ccccc4)cccc3C(=O)N([C@@H](C)CO)C[C@@H]2C)cc1
70	0.0	COCCNC(=O)C[C@H]1C[C@@H]2c3cc(NC(=O)C4CCC4)ccc3O[C@@H]2[C@H](CO)O1
71	-1.0	O=C1[C@@H](c2ccccc2)CC[C@@H]2C=CC[C@H]3CCN1[C@@H]32
72	1.1	CC(C)Oc1cccc(NC(=O)C2(C)CCN2C(=O)C(C)C)c1 (stereo not given)

Single entries from above.
cpd 67 | AF4-AF9 inh = 2.6
cpd 66 | AF4-AF9 inh = 2.7
cpd 68 | AF4-AF9 inh = -0.2
cpd 72 | AF4-AF9 inh = 1.1

Compound activity as filed in PubChem.
